# gsp agonist: qHTS for Agonist of gsp, the Etiologic Mutation Responsible for Fibrous Dysplasia/McCune-Albright Syndrome: qHTS; gsp mutant cells, cAMP HTRF, 30 min; control for the full effect not named in the record; Potency, µM (doses to about 76.9 µM), inactives show top-dose activation (cAMP increase), actives largely listed as activators; hit rate 0.13% among 340,000; active = well fitted activation curve with a large enough effect; inconclusive = small, poorly fitted or top-dose-only effect, or another doubt; inactive = no such curve, though single readings can be large or run the other way; cell line not stated here;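 note: phosphodiesterase inhibitor Ro 20-1724 added with compounds to block cAMP breakdown; potency is the fitted concentration of half-maximal effect; nearly all actives have a fitted effect of over 60% in size; about a fifth of the inactives were tested at one dose only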
#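 Cells stably selected in G418 were plated at 2000/well, grown 16-24 hr, then given compounds in DMSO with the PDE inhibitor […] (300 uM solution added) for 30 min at 37C; cAMP was read by HTRF.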
# gsp antagonist: qHTS for Antagonists of gsp, the Etiologic Mutation Responsible for Fibrous Dysplasia/McCune-Albright Syndrome: qHTS; gsp-mutant cells, cAMP HTRF, 30 min; control for the full effect not named in the record; Potency, µM (titrated, usually from 76.9 µM), for the others: top-dose activity change, negative = inhibition, hits mostly inhibitors; hit rate 0.4% among 340,000; AID 624288, 2012; active = falling curve of any shape with a large fitted effect; inconclusive = falling curve, mostly with a smaller effect; inactive = flat or rising curve; cell line not stated here;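 note: intracellular cAMP measured with PDE inhibitor Ro 20-1724 present during compound exposure; potency is the fitted concentration of half-maximal effect; % is set by controls: 0 for no effect and ±100 for the full control effect; nearly all actives have a fitted effect of over 65% in size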
#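 Cells in G418 medium, seeded 16-24 h, 37C; buffer exchange to DPBS + 1 mM CaCl2, 0.5 mM MgCl2, 0.05% BSA; cpds in DMSO + […] (300 uM stock), 30 min 37C; HTRF cAMP detection.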
# Sfp PPTase inh: qHTS Assay for Inhibitors of Bacillus subtilis Sfp phosphopantetheinyl transferase (PPTase) | Biochemical Sfp PPTase activity, qHTS | Potency, µM, without a hit: max response, negative = inhibition, most hits filed as inhibitors | 4'-phosphopantetheinyl transferase ffp (Bacillus subtilis), Q9F4F7 | hit rate 3.5% among 310,000; active = well fitted inhibition curve with a large enough effect; inconclusive = small, poorly fitted or top-dose-only effect, or another doubt; inactive = no such curve, though single readings can be large or run the other way;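 note: the enzyme is Sfp with the accession as filed and its product quenches rhodamine fluorescence; potency is the fitted concentration of half-maximal effect; 0% = enzyme reaction without inhibitor and -100% = no enzyme wells; top concentration of the series not given in the record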
#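 With Hepes-Na pH 7.6 buffer containing 10 mM MgCl2, Sfp (15 nM) modified BHQ-2-YbbR (12.5 uM) using rhodamine-CoA (5 uM). Two reads 30 minutes apart at 525/598 nm yielded each well's rate.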
# D2 ag: Beta-Arrestin HTS for Positive Allosteric Modulators of the Human D2 Dopamine Receptor: Agonists | AID 624465, 2012 | activation, % (no concentration beside the values) | hit rate 0.084% among 360,000 | DiscoveRx PathHunter D2 beta-arrestin, luminescence, 90 min; 100% = 57 uM dopamine signal | D(2) dopamine receptor (Homo sapiens), P14416; in the data active = activation above about 40%; inconclusive = about 15% to 40%; inactive = below about 15%; note: compound concentration not given in the record; the text of the record calls up to 30% inactive
# Target sequence (P14416 whole entry, looked up): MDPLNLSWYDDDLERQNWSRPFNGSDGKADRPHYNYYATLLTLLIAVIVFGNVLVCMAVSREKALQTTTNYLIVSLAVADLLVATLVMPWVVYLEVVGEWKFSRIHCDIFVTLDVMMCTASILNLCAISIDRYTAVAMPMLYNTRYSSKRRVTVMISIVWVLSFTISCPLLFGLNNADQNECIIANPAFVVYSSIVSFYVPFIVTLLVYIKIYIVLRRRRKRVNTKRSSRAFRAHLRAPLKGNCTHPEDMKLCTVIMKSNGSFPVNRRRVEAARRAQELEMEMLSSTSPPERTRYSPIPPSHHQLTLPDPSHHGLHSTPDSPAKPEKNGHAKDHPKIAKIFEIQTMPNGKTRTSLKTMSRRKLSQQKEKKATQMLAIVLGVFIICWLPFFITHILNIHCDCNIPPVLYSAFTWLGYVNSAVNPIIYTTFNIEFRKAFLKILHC
#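 DiscoveRx PathHunter D2 beta-arrestin cells (2,100/well) attached overnight, then compound-stimulated 90 min at 37 C in HBSS/10 mM HEPES/0.1% Tween-20 buffer; beta-galactosidase complementation read by luminescence after 1 h at ambient temperature. Dopamine 57 uM final (EC100) as control.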
# Menin-MLL FL inh: qHTS Assay for Inhibitors Targeting the Menin-MLL Interaction in MLL Related Leukemias: Competition With Fluorescein Labeled MLL-derived Peptide | FP activity change, % at 61.4 µM | 290,000 tested, under 10 active | AID 1766, 2009 | Fluorescence polarization, fluorescein-MLL peptide displacement from menin; inconclusive = falling polarisation curve, or a change in total fluorescence; inactive = total fluorescence flat and polarisation flat or rising; no compound was filed as active; the % refers to the polarisation; negative = inhibition;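 note: % of control where 0% means no effect; inhibitors lower the polarisation; unlabelled MLL peptide was the positive control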
# PINK1 expr mod: A Quantitative High throughput Screen to Identify Chemical Modulators of PINK1 Expression; PINK1 immunofluorescence, high-content cytometry, 24 h; Potency, µM (top dose mostly 76.6 µM), for inactives: top-dose activation (PINK1 increase), hits mostly activators; hit rate 0.2% among 410,000; active = well fitted activation curve with a large enough effect; inconclusive = small, poorly fitted or top-dose-only effect; inactive = flat fitted curve, though single readings scatter; cell line not stated here;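 note: potency is the fitted concentration of half-maximal effect; % of control where 0% means no effect; nearly all actives have a fitted effect of over 65% in size; a mitochondrial uncoupler was the plate control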
#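 Readout is PINK1 immunofluorescence, quantified alongside mitochondrial, cell and nuclear markers by laser-scanning microplate cytometry. Cells from a stable line were exposed to compound titrations (5 concentrations) for 24 hours, with CCCP controls.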
# ClpP mod: qHTS Assay for Activators of ClpP; ATP-dependent Clp protease proteolytic subunit (Bacillus subtilis (strain 168)), P80244; hit rate 1.9% among 340,000; purified B. subtilis ClpP, FRET peptide cleavage, 20 min; Potency, µM (series often up to 57.5 µM), for the others: at the top dose activity change, negative = active; active = well fitted falling curve with a large enough effect; inconclusive = small, poorly fitted or top-dose-only effect; inactive = no such curve, though single readings can be large or run the other way; note: potency is the fitted concentration of half-maximal effect; the source files actives as falling curves though it sought activators and does not explain the sign; nearly all actives have a fitted effect of over 65% in size; many hits overshoot -100%
# Target sequence (P80244 whole entry, looked up): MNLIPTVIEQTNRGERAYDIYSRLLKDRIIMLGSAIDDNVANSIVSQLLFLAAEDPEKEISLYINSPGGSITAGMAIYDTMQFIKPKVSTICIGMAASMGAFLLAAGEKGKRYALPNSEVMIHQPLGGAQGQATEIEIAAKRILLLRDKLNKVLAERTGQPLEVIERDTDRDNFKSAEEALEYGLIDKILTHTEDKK
#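 ClpP 10 microg/mL final, pH 8 Tris/KCl buffer with BSA, glycerol, Tween-20; compound pinned in; FRET-FV substrate; RT 20 min; Ex320/Em430; ΔFRET vs ADEP 5.8 microM, DMSO, no enzyme.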
# Numbers without * were called inactive; ? = inconclusive; . = no result given; & = joins results of further samples; [ ] = dose if it differs, or a comment.
SMILES,gsp agonist,gsp antagonist,Sfp PPTase inh,D2 ag,Menin-MLL FL inh,PINK1 expr mod,ClpP mod
CC(=O)c1cc(-c2ccccc2)n(CCC(=O)NC2CCC(C)CC2)c1C (stereo not drawn),15%,-7%,-4%,-0.6,1.7,0.2%,0.2%
CCOc1ccccc1C(=O)OCC(=O)NCC1CCCO1 (stereo not drawn),-15%,15%,.,0.7,.,4.2%,-23%
CN(c1cccc(Cl)c1)S(=O)(=O)c1cccc(C(=O)NC2=NCCS2)c1,-3%,-29%,0%,-0.6,2.6,3.9%,-0.2%
CC(NC(=O)c1cc(S(=O)(=O)N(C)C)ccc1N1CCCC1)C1CC2CCC1C2 (stereo not drawn),8%[15.4 µM],-28%,15%,-6.1,9.7,2.3%,.
CC(=O)Nc1ccc(C(=O)OCc2ccc(F)cc2)cc1,?,-5%,-8%,-2.2,1.0,1.5%,.
CN(C)C(=O)C12CCC(C)(c3nc4ccccc4nc31)C2(C)C (stereo not drawn),-1%,5%,19%,-2.9,3.1,?,-2.5%
COc1cccc(CN(CC(=O)NC2CCCC2)C(=O)CCC(=O)Nc2cc(C)on2)c1,7%[15.4 µM],3%,12%,-2.9,-0.1,1.1%,-2.9%
O=C(NCCN1CCN(C(=O)c2c(F)cccc2F)CC1)C(=O)Nc1ccc(Cl)cc1,4%,-3%,6%,-1.5,0.6,?,1.5%
Cc1cc(C)c2c(c1)OC(O)(C(F)F)CC2=O (stereo not drawn),-76%[inhibitor],6%,5%,-1.8,2.0,.,-3.6%
CCOc1ccc(Nc2cc(C)nc(N3CCOCC3)n2)cc1,-2%,22%,10%,0.0,3.5,0.4%,4.2%
Cc1ccc(OCC(=O)NCCNC(=O)c2ccco2)cc1,-4%,6%,7%,-0.4,-18,1.0%,.
COc1ccc(CCNC(=O)CC2SC(=NCc3ccccc3)NC2=O)cc1 (stereo not drawn),-10%[15.4 µM],6%,9%,1.2,-0.9,-0.6%,.
Cc1ccc(O)c(NC(=S)NC(=O)Cc2ccc(Cl)cc2)c1,?,18%,3%,2.2,-1.1,-0.8%,.
Cc1cc(NC(=O)C(C)SCC(=O)O)no1 (stereo not drawn),-6%[15.4 µM],8%,16%,0.0,2.9,0.8%,-2.0%
O=C(CC1Nc2ccccc2NC1=O)NCCc1ccccc1 (stereo not drawn),15%,11%,27%,-1.0,-0.2,-1.5%,?
COc1ccc(C2NS(=O)(=O)N=C2N)cc1 (stereo not drawn),-16%[15.4 µM],-7%,3%,1.6,3.2,0.1%,.
O=C(Cc1ccc(S(=O)(=O)N2CCOCC2)s1)Nc1ccc(Br)c(C(F)(F)F)c1,?,-38%,.,-0.8,.,?,-0.4%
COc1ccc(C2(C)NC(=O)N(CC(=O)NC3CC3)C2=O)cc1 (stereo not drawn),27%,5%,.,1.2,.,-0.6%,.
C[C@]1(C2CCCC2)Cc2cc(OCC(=O)O)c(Cl)c(Cl)c2C1=O,.,-7%,.,-4.2,.,0.1%,-0.2%
CC(C)(C)CC(C)(C)N=C1NS(=O)(=O)c2cc([N+](=O)[O-])ccc21,-19%[15.4 µM],-6%,-1%,?,-2.2,4.1%,.
Cc1nn(Cc2ccccc2)c(C)c1NC(=O)c1ccc([N+](=O)[O-])cc1[N+](=O)[O-],-64%[inhibitor],-5%,8%,?,-1.0,3.2%,?
COC(=O)C(F)(Sc1c(C)n(C)n(-c2ccccc2)c1=O)C(F)(F)F (stereo not drawn),11%,-5%,5%,0.5,5.1,-5.2%[38.3 µM],1.5%
CN=C1SC(CC(=O)NCCc2ccc(OC)c(OC)c2)C(=O)N1C (stereo not drawn),28%&-26%,7%&5%,-4%,-1.8&-0.3,1.5,0.3%&-0.1%,0.4%
CC(C)(C)c1ccc(C(=O)C=[N+]=[N-])cc1,-28%,-4%[15.4 µM],2%,-0.4,-2.3,0.4%,0.6%
COc1ccc(-n2nc(C(=O)NCC(=O)N3CCC(C)CC3)c3ccccc3c2=O)cc1,-5%[15.4 µM],-9%,7%,-0.8,-5.4,0.2%,.
CN(/C(=N/S(=O)(=O)c1ccccc1)c1ccccc1)S(=O)(=O)c1ccccc1,9%,10%,7%,-2.2,-2.5,1.2%,0.4%
CCOC(=O)C1CC2=C(CCCC2=O)N(Cc2ccccc2)C1=O (stereo not drawn),.,4%,.,-1.1,.,6.6%,-1.0%
COc1ccccc1CNC(=O)COC(=O)Cc1ccc(F)cc1,-6%[15.4 µM],6%,.,-2.1,.,0.3%,.
COCc1cc(C)n(CC(=O)Nc2cc(C)cc(C)c2)c(=O)c1C#N,-5%,0%,13%,-5.9,1.0,-1.1%,3.7%
S=C(NCCc1ccccc1)N1CCN(C23CC4CC(CC(C4)C2)C3)CC1,13%[15.4 µM],-1%,0%,-0.8,1.5,6.4%,-5.0%
CCOC(=O)N1CCN(C(=O)CS(=O)(=O)c2cn(Cc3ccccc3Cl)c3ccccc23)CC1,-37%[inhibitor],-2%,23%,-4.1,0.1,9.3%,1.7%
Cc1ccc(S(=O)(=O)/N=C(/Nc2c(C)n(C)n(-c3ccccc3)c2=O)c2ccccc2)cc1,-10%[15.4 µM],-2%,-9%,-0.8,5.3,1.7%,-16%
CC1CN(S(=O)(=O)c2cccc(C(=O)NCC(c3cccs3)N3CCOCC3)c2)CC(C)O1 (stereo not drawn),0%,12%,.,0.9,.,-0.3%,-0.4%
CC(CO)NS(=O)(=O)c1ccc(Br)cc1F (stereo not drawn),.,15%,.,-5.3,.,2.6%,-1.1%
N#CC1(NC(=O)COC(=O)c2cc(=O)[nH]c3ccccc23)CCCCC1,6%,10%,.,-0.4,.,-2.3%,-11%
O=C(CCC1CCN(C(=O)c2cncs2)CC1)Nc1ccccc1,-2%[15.4 µM],6%,11%,-3.3,.,1.2%,-4.0%
CCCN1CCc2c(sc(NC(=O)c3ccc(S(=O)(=O)N(C)c4ccccc4)cc3)c2C(N)=O)C1,?,?,-20%,-6.5,?,16%,-1.0%
COc1cc(C(=O)NCC2CCCO2)cc(Br)c1OCc1ccccc1 (stereo not drawn),-40%[inhibitor],-11%,.,0.4,.,2.1%,0.5%
N#Cc1ccc(/C=N/NC(=S)Nc2ccc(S(=O)(=O)N3CCOCC3)cc2)cc1,-11%[15.4 µM],-14%,26%,-0.6,0.8,1.1%,.
CCOC(=O)Cc1cc(-c2ccc(F)cc2)nc2ccc3ccccc3c12,-9%,6%,16%,-5.1,-1.7,12%,22µM*
CCCCCn1nc(-c2ccccc2)c2nc3ccccc3nc21,15%,9%,11%,-2.1,?,9.3%,-4.2%
COc1ccccc1N(C)S(=O)(=O)c1ccc(C(=O)NC2CCCCC2)cc1,-9%,-3%,.,-1.3,.,1.0%,0.8%
COc1ccc2[nH]c(=O)c(CN(Cc3ccco3)C(c3nnnn3Cc3ccccc3)C(C)C)cc2c1 (stereo not drawn),1%,-36%,-7%,-0.6,-0.3,0.9%,?
CCOc1ccccc1NC(=O)C1CCN(c2nc(-c3ccc(OC)cc3)no2)CC1,3%,4%,-27%,-1.7,-0.8,-0.2%,2.9%
COc1ccc(NC(C)=O)cc1S(=O)(=O)N1CCc2ccccc21,9%[15.4 µM],10%,9%,-4.3,0.5,2.9%,.
CC(C)CCNC(=O)c1cccnc1Sc1ccccc1,7%,-8%,22%,-2.6,2.0,2.9%,-0.5%
CCCc1nn2c(=O)cc(CSCC(=O)Nc3ccccc3)nc2s1,?,11%,1%,-4.9,.,0.6%,-0.6%
COc1ccc2c(c1)CCc1c(C(=O)Nc3ccc(OC)c(OC)c3)noc1-2,?,-13%,8%,-1.2,3.9,?,11%
CN(CC(=O)Nc1ccc(F)cc1)C(=O)COC(=O)CCN1C(=O)C2CC=CCC2C1=O (stereo not drawn),-2%[15.4 µM],5%,14%,1.8,.,0.4%,0.5%
CCOc1ccccc1N1CCN(C(=O)c2ccc3[nH]c(C)c(C)c3c2)CC1,-34%[inhibitor],-1%,-3%,5.6,6.9,3.7%,-0.7%
CCCn1nnnc1SCC(=O)c1ccc2c(c1)OCCO2,10%,-3%,8%,-3.7,0.9,2.7%,0.7%
Cc1cc(C)c2oc(-c3cccc(N)c3)nc2c1,10%,2%,6%,1.9,-6.7,-1.2%,4.1%
Cc1ccnc2nc(C(=O)Nc3nc(-c4ccccn4)cs3)nn12,0%,-6%,14%,9.0,0.2,2.7%,.
CCCCNc1c(-c2ccc(SC(C)CC)c(OC)c2)nc2ccc(Cl)cn12 (stereo not drawn),5%,-5%,.,12,.,?,-27%
CC1([N+](=O)[O-])COC2(OC1)C(=O)Nc1ccccc12 (stereo not drawn),-3%,-10%,0%,-4.3,3.9,0.2%,.
Cc1cccc(C)c1OCc1cc(C(=O)N(C)Cc2cc(C3CC3)n[nH]2)no1,6%,-21%,-12%,-1.8,-4.2,0.8%,-3.2%
COC(=O)c1c(-c2c(Cl)cccc2Cl)noc1NC(=O)N(C)C,0%[15.4 µM],-20%,27%,3.2,0.3,0.1%,.
Cc1ccc2cc(CCNC(=O)C3CCCCC3)c(=O)[nH]c2c1C,?,6%,20%,-2.1,2.5,2.0%,-9.4%

# Screening results as filed in PubChem BioAssay.
